# Screens deposited in PubChem BioAssay by several laboratories.
# RN4220 kill: kills Staphylococcus aureus RN4220 | S. aureus RN4220 growth, OD600, 16 h | inhibition, % (test concentration not listed) | 330,000 compounds, 0.33% hits;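 active = z-score of -3 or lower and OD600 up to 0.18 on both plates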;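 note: plate controls were untreated cells for no effect and reference antibiotic for full effect; stock transfer was 100 nL into about 80 µL; one replicate is shown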
# Bead autofluor: flagged as autofluorescent in microsphere protease counterscreen; fluorescence intensity (test concentration not listed); compound autofluorescence counterscreen, microsphere flow cytometry; stronger effect = higher value; 360,000 compounds, 3.1% hits; AID 624483;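 active = at least 3 SD above the mean of all compounds, about 16000 in these data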;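 note: 100 nL of 1 mM stock went into each well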
# Sa ugtP lethal: compounds lethal to S. aureus RN4220 ugtP deletion mutant; OD600 growth, 16 h; some inactives read as strong as hits; growth inhibition, % (concentration not given with the values); 330,000 compounds, 0.54% hits;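 active = z-score under -3 and OD600 up to 0.15 on both plates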;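 note: plate controls were untreated wells for no effect and antibiotic for full effect; wells of about 80 µL received 100 nL stock; the first replicate is given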
# BJeLR lethal: BJeLR cell viability loss; inhibition, % (test concentration not listed); BJeLR (HRASV12) viability, CellTiter-Glo ATP luminescence, 48 h; reference of the scale not given here; 300,000 compounds, 0.17% hits; AID 1554;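 active = replicate mean above 50%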;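 note: 50 nL library stock added to about 25 µL; numbers are from one replicate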
# PrP UTR inh: suppresses PrP 5' UTR mRNA reporter expression | cell-based PrP 5' UTR mRNA reporter, plate reader | AID 488862 | 340,000 compounds, 0.35% hits | inhibition, % (test concentration not listed);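 active = every replicate at 50% or more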;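 note: 0 = median of the neutral control wells; tested in H4 reporter cells; numbers are from one replicate; inactives centre near -14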
# Mtb hypoxia inh: Mtb hypoxia fluorescent reporter inhibition; M. tuberculosis hypoxia-regulated fluorescent reporter, fluorescence; fluorescence inhibition, % (no concentration beside the values); 300,000 compounds, 0.1% hits; AID 1159583;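 active = 35 to 45% if threefold the growth effect, above 45% if 1.5-fold the growth effect; inactive = the rest, general growth blockers included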;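 note: wells of about 50 µL received 100 nL stock; 0% = vehicle wells and 100% = reference inhibitor wells; whole bacteria with a GFP reporter of the hypoxia response; strong numbers were not always called active; many hits fall short of the cut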
# Mtb hypoxia inh growth: recorded beside Mtb hypoxia inh, whose call it bears; growth inhibition, %; measured here: M. tuberculosis growth (absorbance);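 0% = vehicle and 100% = reference antibiotic; read after six days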
# Starred values were filed as active, the others as inactive; x = not tested or not shown.
1. O=C1c2cc(S(=O)(=O)NCCCO)ccc2-c2ccc(S(=O)(=O)NCCCO)cc21
2. CCOc1ccccc1CN1CCN(Cc2cccc3nonc23)CC1CCO (configuration not stated)
3. CCOC(=O)C1=C(C)NC(=S)NC1c1ccc(-c2ccc(Cl)cc2)o1 (configuration not stated)
4. CCc1ccc(C(=O)NNC(=O)C2CC(=O)N(c3ccc4c(c3)OCCO4)C2)cc1 (configuration not stated)
5. CCCN(CCC)CCCNC(=O)c1cn(CCOC)c(=O)c2c1c1ccccc1n2C

entry no.	1	2	3	4	5
RN4220 kill	4.2	-0.5	3.1	2.6	1.6
Bead autofluor	21753*	4537	2695	2912	9809
Sa ugtP lethal	-1	6	-17	-3	-2
BJeLR lethal	-8	x	-16	x	-12
PrP UTR inh	-29	-20	-15	-12	-17
Mtb hypoxia inh	9	5	-2	5	10
Mtb hypoxia inh growth	6	3	0	5	8

6. Cc1ccc(-n2ccc(=O)c(C(=O)Nc3ccc(S(=O)(=O)Nc4nccc(C)n4)cc3)n2)cc1
7. O=C(CCn1cccc1)NCc1ccccc1
8. Cc1csc(CNC(=O)C2CCC(=O)N(CCCc3ccccc3)C2)n1 (configuration not stated)
9. O=C(Nc1ccc2c(c1)OCCO2)C1CCCN1C(=O)Nc1ccccc1 (configuration not stated)
10. CC(C)N(Cc1cc2ccccc2[nH]c1=O)C(=O)c1cccc([N+](=O)[O-])c1

entry no.	6	7	8	9	10
RN4220 kill	1.4	3.9	1.5	5.8	2.2
Bead autofluor	4667	3349	4321	5938	3384
Sa ugtP lethal	3	5	2	-3	7
BJeLR lethal	3	-12	6	5	-8
PrP UTR inh	0	-20	-4	7	68*
Mtb hypoxia inh	19	x	-3	11	8
Mtb hypoxia inh growth	23	x	-12	10	-7

11. Cc1sc2nc(CN(C(=O)NC3CCCCC3)C3CCCC3)[nH]c(=O)c2c1C
12. CCC(=O)[C@@]1(C)C(C)CC2C3CCC4=CC(=O)C=C[C@]4(C)C3C(O)C[C@@]21C (some centres not stated)
13. O=C(c1ccc(-n2cncn2)c([N+](=O)[O-])c1)N1CCN(S(=O)(=O)c2c(F)cccc2F)CC1
14. CCCc1nnc(SCC(=O)N2CCCC(C)C2)n1CCCOC (configuration not stated)
15. CCOC(=O)N1CCN(C(=O)c2ccc(Cl)c(S(=O)(=O)Nc3ccccc3)c2)CC1

entry no.	11	12	13	14	15
RN4220 kill	11	11	0.1	0.5	0.5
Bead autofluor	6488	x	5680	5006	5972
Sa ugtP lethal	-5	2	2	3	3
BJeLR lethal	-13	x	7	-5	-5
PrP UTR inh	-14	x	-3	-2	-18
Mtb hypoxia inh	4	3	3	x	x
Mtb hypoxia inh growth	7	-2	5	x	x

16. COc1cc2c(cc1NC(=O)C(C)Sc1cccc[n+]1[O-])oc1ccccc12 (configuration not stated)
17. O=C(NCCN1CCCC1)C1CC(=O)N(C2CCCCC2)C1 (configuration not stated)
18. COc1nn(CC(=O)N2N=C(C)CC2(O)C(F)(F)F)cc1[N+](=O)[O-] (configuration not stated)
19. C=C1c2ccccc2S(=O)(=O)N(Cc2ccccc2)C1COCc1ccccc1 (configuration not stated)
20. CCOC(=O)Cn1c(=O)oc2cc(S(=O)(=O)NCCC(C)C)ccc21

entry no.	16	17	18	19	20
RN4220 kill	x	7.5	7.4	2.2	8.3
Bead autofluor	2910	3151	24478*	3683	4181
Sa ugtP lethal	x	-7	-7	7	9
BJeLR lethal	9	1	-15	4	10
PrP UTR inh	-51	-19	-19	-33	-13
Mtb hypoxia inh	x	6	-3	19	5
Mtb hypoxia inh growth	x	6	6	9	6

# Whole records, looked up by structure. Order of screens: RN4220 kill	Bead autofluor	Sa ugtP lethal	BJeLR lethal	PrP UTR inh	Mtb hypoxia inh	Mtb hypoxia inh growth
# Listed for `C=C1c2ccccc2S(=O)(=O)N(Cc2ccccc2)C1COCc1ccccc1` (configuration not stated) : 2.2	3683	7	4	-33	19	9
# Listed for `COc1nn(CC(=O)N2N=C(C)CC2(O)C(F)(F)F)cc1[N+](=O)[O-]` (configuration not stated) : 7.4	24478*	-7	-15	-19	-3	6
# Listed for `COc1cc2c(cc1NC(=O)C(C)Sc1cccc[n+]1[O-])oc1ccccc12` (configuration not stated) : x	2910	x	9	-51	x	x
# Listed for `O=C(NCCN1CCCC1)C1CC(=O)N(C2CCCCC2)C1` (configuration not stated) : 7.5	3151	-7	1	-19	6	6
# Listed for `CCOC(=O)Cn1c(=O)oc2cc(S(=O)(=O)NCCC(C)C)ccc21` : 8.3	4181	9	10	-13	5	6

# Following part:
21. CCOC(=O)C1CCN(C(=O)c2cc3cc4cc(OC)ccc4nc3o2)CC1
22. CCc1cc2c(-c3ccccc3)cc(=O)oc2cc1OC(C)C(C)=O (configuration not stated)
23. Nc1ccc(C(=O)N/N=C/c2c[nH]c3ccccc23)cc1
24. Cc1ccc(CSCCNC(=O)CN(c2ccccc2)S(C)(=O)=O)cc1
25. CC1(C)CC(=O)C2=C(C1)Oc1ncn3nc(-c4cccnc4)nc3c1C2c1ccccc1 (configuration not stated)

entry no.	21	22	23	24	25
RN4220 kill	-0.6	-4.9	x	2.1	7.9
Bead autofluor	3504	3543	3743	4853	3291
Sa ugtP lethal	5	1	x	4	-2
BJeLR lethal	-9	-3	0	-3	x
PrP UTR inh	-22	-16	-15	-8	-6
Mtb hypoxia inh	-2	-6	x	-1	-4
Mtb hypoxia inh growth	11	3	x	-3	4

26. Cc1ccc(NC(=O)Cn2cc(S(=O)(=O)c3ccc(C)cc3)c(=O)c3cc(F)ccc32)cc1
27. NC(=O)C1CCCN(C(=O)c2ccc(-c3cccc(Cl)c3Cl)o2)C1 (configuration not stated)
28. COc1nc2ccccc2nc1N1CCN(Cc2ccc3c(c2)OCO3)CC1
29. CCOc1cc(S(=O)(=O)N2CCC(c3nc4ccccc4s3)CC2)c(OCC)cc1S(=O)(=O)N1CCCCC1
30. CCC(=O)N1N=C(c2ccc(NS(C)(=O)=O)cc2)CC1c1ccc(C)cc1 (configuration not stated)

entry no.	26	27	28	29	30
RN4220 kill	12	5.7	-2.5	5.1	1.6
Bead autofluor	6148	6376	3666	10242	19251*
Sa ugtP lethal	13	-9	12	10	1
BJeLR lethal	-16	x	17	1	x
PrP UTR inh	-13	-56	-20	-13	-6
Mtb hypoxia inh	x	11	1	3	3
Mtb hypoxia inh growth	x	-4	1	6	8

31. CCS(=O)(=O)N1CCC(C(=O)NCCc2ccccc2)CC1
32. Cc1ccccc1/C=N/NC(=O)Cc1ccc(Cl)cc1
33. CC(=O)CCCC(NS(=O)(=O)CCC(Cl)(Cl)Cl)c1ccccc1 (configuration not stated)
34. CCC12CN3CCN(CC(C3)/C1=N\NC(=O)c1ccc(C(C)(C)C)cc1)C2
35. Cc1nn(-c2ccc(Cl)c(Cl)c2Cl)c(=O)c2ccccc12

entry no.	31	32	33	34	35
RN4220 kill	3.9	x	x	x	-4.6
Bead autofluor	8358	4795	3963	10752	2277
Sa ugtP lethal	5	x	x	x	2
BJeLR lethal	-2	-1	4	17	-4
PrP UTR inh	-7	5	-16	-8	13
Mtb hypoxia inh	5	x	x	x	x
Mtb hypoxia inh growth	6	x	x	x	x

36. CC(=O)N1N=C2c3ccccc3CCC2C1c1ccc(F)cc1 (configuration not stated)
37. COc1ccc(CC(=O)Nc2cc(C)ccn2)cc1
38. CC(C)Cn1c2c(c(=O)[nH]c1=O)C(C(F)(F)F)(C(F)(F)F)N=C(CCC1CCCCC1)N2
39. CC(C)CCNc1nc2ccccc2nc1NS(=O)(=O)c1cccs1
40. O=C(OCC1OC(n2ncc(=O)[nH]c2=O)C(OC(=O)c2ccccc2)C1OC(=O)c1ccccc1)c1ccccc1 (configuration not stated)

entry no.	36	37	38	39	40
RN4220 kill	5.6	2.5	1.8	45	-2.8
Bead autofluor	5476	11256	2328	3278	5131
Sa ugtP lethal	8	6	-10	22	-36
BJeLR lethal	-2	-10	10	-13	-7
PrP UTR inh	x	x	-13	4	-30
Mtb hypoxia inh	11	8	-3	14	x
Mtb hypoxia inh growth	5	9	3	2	x

41. O=C(CN1C(=O)C2C3C=CC(C3)C2C1=O)Nc1ccc2nccnc2c1 (configuration not stated)
42. CCC(CC)c1nnc(NC(=O)C2CSC3(C)CCC(=O)N23)s1 (configuration not stated)
43. NC(=O)c1cccc([N+](=O)[O-])c1
44. C/C(=N\NC(=O)c1cccc(S(=O)(=O)N2CCCC2)c1)c1cccs1
45. O=C(N1CCN(c2ccccc2F)CC1)C1(c2cccs2)CCOCC1

entry no.	41	42	43	44	45
RN4220 kill	5.8	4.8	2.7	x	3.6
Bead autofluor	5130	4242	5898	4559	2546
Sa ugtP lethal	-1	3	4	x	31
BJeLR lethal	8	1	x	-2	-6
PrP UTR inh	-14	-6	-19	-24	-1
Mtb hypoxia inh	-3	6	3	x	1
Mtb hypoxia inh growth	-5	3	11	x	-3

46. O=C(COn1nnc2ccccc21)NCC1CCCCC1
47. Cc1cc(C)nc(NS(=O)(=O)c2ccc(N3C(=O)c4ccccc4C3=O)cc2)n1
48. O=C(c1ccc(Cl)cc1)c1c[nH]c(C(=O)NNc2cccc(Cl)n2)c1
49. Cc1nc(-c2ccccc2)nc2[nH]c(-c3ccccc3)cc(=O)c12
50. COc1ccc(-c2cc3ccc(OCc4nn[nH]n4)cc3oc2=O)cc1

entry no.	46	47	48	49	50
RN4220 kill	2.6	3.6	0.4	-0.2	7.3
Bead autofluor	4362	2238	3217	3265	23976*
Sa ugtP lethal	12	4	-5	3	-3
BJeLR lethal	0	9	1	-23	-2
PrP UTR inh	-30	-7	0	-6	-8
Mtb hypoxia inh	x	-2	2	x	17
Mtb hypoxia inh growth	x	1	-4	x	7

51. O=C(c1ccccc1F)N1CCN(c2ccc([N+](=O)[O-])c(NCc3cccnc3)c2)CC1
52. COc1cccc(CNC(=O)CCS(=O)(=O)c2cccc3nsnc23)c1
53. OCC1(CCOc2ccccc2)CCN(Cc2ccccc2OC(F)F)CC1
54. O=C(Oc1ccc(C(=S)N2CCCCC2)cc1)c1ccccc1
55. O=[N+]([O-])c1ccc(Sc2n[nH]c(-c3ccccc3)n2)nc1

entry no.	51	52	53	54	55
RN4220 kill	-2.4	7.9	-1.1	1.4	1.4
Bead autofluor	x	7752	4466	3539	4989
Sa ugtP lethal	-8	-2	1	12	0
BJeLR lethal	3	-1	-15	9	-2
PrP UTR inh	x	-30	1	6	-17
Mtb hypoxia inh	8	6	-7	-3	x
Mtb hypoxia inh growth	11	12	7	0	x

56. CN(CCOC(=O)c1cccc(F)c1)Cc1ccccc1
57. CCOC(=O)C(=Cc1ccc(OCc2ccc([N+](=O)[O-])cc2)c(OC)c1)C(=O)OCC
58. CCCCCC1CN(C2CCCCC2)C(=O)C1CC(=O)NCc1ccccc1 (configuration not stated)
59. CSc1ccc(C(=O)NCC(=O)O)cc1[N+](=O)[O-]
60. CC(C)CN(C(=O)CCNC(=O)c1ccc([N+](=O)[O-])cc1)C1CCS(=O)(=O)C1 (configuration not stated)
61. CNC(=O)COC(=O)c1ccc(OCC(=O)Nc2ccccc2OC)c(OC)c1
62. Cn1nc(C(F)(F)F)c(/C=N/OC(=O)c2ccccc2Cl)c1SCc1ccccc1Cl
63. C/C(=C\c1ccccc1)C(=O)NC1CCSC1=O (configuration not stated)

entry no.	56	57	58	59	60	61	62	63
RN4220 kill	x	-9.6	1.2	5.6	2.7	1.3	x	3.3
Bead autofluor	4561	2927	x	5073	3918	4254	22148*	10863
Sa ugtP lethal	x	1	-23	6	4	6	x	-1
BJeLR lethal	-2	0	x	0	x	5	-9	-6
PrP UTR inh	-23	-71	x	-17	-28	-15	-18	-9
Mtb hypoxia inh	x	16	6	7	7	0	x	1
Mtb hypoxia inh growth	x	7	5	8	3	-4	x	11

# 5 entries from above, ordered by formula weight, smallest number first.
42. CCC(CC)c1nnc(NC(=O)C2CSC3(C)CCC(=O)N23)s1 (configuration not stated)
30. CCC(=O)N1N=C(c2ccc(NS(C)(=O)=O)cc2)CC1c1ccc(C)cc1 (configuration not stated)
52. COc1cccc(CNC(=O)CCS(=O)(=O)c2cccc3nsnc23)c1
61. CNC(=O)COC(=O)c1ccc(OCC(=O)Nc2ccccc2OC)c(OC)c1
5. CCCN(CCC)CCCNC(=O)c1cn(CCOC)c(=O)c2c1c1ccccc1n2C

entry no.	42	30	52	61	5
RN4220 kill	4.8	1.6	7.9	1.3	1.6
Bead autofluor	4242	19251*	7752	4254	9809
Sa ugtP lethal	3	1	-2	6	-2
BJeLR lethal	1	x	-1	5	-12
PrP UTR inh	-6	-6	-30	-15	-17
Mtb hypoxia inh	6	3	6	0	10
Mtb hypoxia inh growth	3	8	12	-4	8
